From PubChem
Ecoli rRNA inh = selective bacterial rRNA inhibition in E. coli | E. coli WT GFP vs humanized-ribosome RFP mutants, fluorescence, 24 h; hits give low values; DMSO median 0, no signal -100 | hit rate 1.6% among 350,000 | AID 720706 | GFP signal change (wild-type ribosome), % (test concentration not listed);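 active = significant combined selectivity score with lowered wild-type GFP, culture density cut under 30%, mutant RFP and density less affected; inactive = any of these conditions unmet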; note: one replicate is shown; some compounds called inactive have numbers as strong as hits
E coli growth = E. coli growth inhibition; Escherichia coli growth, OD600, 23 h; hits give low values; OD600 absorbance (test concentration not listed); hit rate 0.21% among 330,000; AID 1053175;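 active = OD600 absorbance below the run mean of sample wells minus 3.6 SD, in any replicate, cut at about 0.56 in these data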;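 note: stock transfer was 300 nL into about 60 µL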
MLL AF4-AF9 inh = inhibitors of human MLL-AF4/AF9 interaction; AlphaScreen, biotin-AF4 peptide binding to FLAG-AF9; P42568; hit rate 0.47% among 350,000; inhibition, % at 10 µM;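 active = every replicate reaching a set inhibition limit, whatever the replicate mean, cut at about 25% in these data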;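 note: 0% = plate neutral control median and 100% = total signal loss; the record names both 10 and 1 µM as test concentration; the first replicate is given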
Target sequence (P42568 whole entry, looked up): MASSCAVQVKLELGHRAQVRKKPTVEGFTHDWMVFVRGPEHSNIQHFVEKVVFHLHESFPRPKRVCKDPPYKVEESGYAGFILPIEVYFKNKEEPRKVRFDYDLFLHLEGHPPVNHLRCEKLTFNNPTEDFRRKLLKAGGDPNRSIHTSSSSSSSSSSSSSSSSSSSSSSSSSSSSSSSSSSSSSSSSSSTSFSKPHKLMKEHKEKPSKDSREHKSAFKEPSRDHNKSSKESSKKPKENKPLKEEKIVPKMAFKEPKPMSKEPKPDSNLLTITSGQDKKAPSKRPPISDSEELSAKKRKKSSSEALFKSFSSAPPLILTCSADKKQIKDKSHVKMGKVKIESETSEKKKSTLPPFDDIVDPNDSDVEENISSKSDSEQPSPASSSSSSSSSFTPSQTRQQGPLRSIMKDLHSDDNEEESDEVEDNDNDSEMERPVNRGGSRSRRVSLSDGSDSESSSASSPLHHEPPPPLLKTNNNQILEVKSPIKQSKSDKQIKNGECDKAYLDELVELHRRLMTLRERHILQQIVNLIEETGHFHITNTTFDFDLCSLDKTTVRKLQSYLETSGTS
FGF22 binding = binders of recombinant human FGF22 by thermal shift. Q9HCT0. SYPRO orange fluorescence; percent of sucrose octasulfate shift, DMSO zero. calls only at 9.99 µM. hit rate 1.5% among 340,000. AID 651658;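 active = melting point raised past a set limit in the mean and every replicate; three in four hits are not shown here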
Target sequence (Q9HCT0 whole entry, looked up): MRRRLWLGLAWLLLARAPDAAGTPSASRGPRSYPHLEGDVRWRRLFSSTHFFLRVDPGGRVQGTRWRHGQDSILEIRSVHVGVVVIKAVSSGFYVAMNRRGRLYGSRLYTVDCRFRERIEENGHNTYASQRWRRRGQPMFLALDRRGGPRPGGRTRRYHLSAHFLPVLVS
UCH37 inh = human UCH37 deubiquitinating enzyme inhibition; Q9Y5K5; purified proteasome/UCH37, Ub-AMC cleavage fluorescence; inhibition, % (concentration not given with the values); hit rate 0.33% among 330,000;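 active = mean of two replicates above 20%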;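 note: 0% = compound-free wells with enzyme and 100% = wells lacking proteasome; stock transfer was 100 nL into about 20 µL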
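Signal – fluorescence, ex 355 nm, em 460 nm · System – Proteasome-bound UCH37 · Input – 0.15 nM proteasome as dispensed · Timing – 30 min preincubation with enzyme, 25 min cleavage at room temperature · Read-out basis – percent inhibition of cleavage signal versus uninhibited and no-proteasome wells · Medium – Tris-HCl pH 7.4 with ATP-MgCl2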
A1 inh = inhibitors of the anti-apoptotic protein A1, read as caspase activation. MEF A1-2A-BIM cells, Caspase-Glo 3/7 luminescence, 3 h; percent of clofoctol response, vehicle zero. caspase activation, % (concentration not given with the values). hit rate 0.066% among 330,000;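 active = over half of replicate activation scores above 10%, or exactly half above 10 with the replicate mean above 10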;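 note: wells of about 30 µL received 50 nL stock; many hits fall short of the cut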
Beta apoptosis = beta cell apoptosis inhibition; INS-1E cytokine-induced death, ATP luminescence, 48 h; percent of positive-control rescue, neutral wells zero; protection from apoptosis, % (no concentration beside the values); hit rate 0.8% among 300,000;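 active = all replicates at 75% or more, or half of them and the mean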;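 note: 0% = cytokine-treated negative control wells and 100% = positive control rescue; higher means more ATP so stronger rescue from cytokine killing; wells of about 40 µL received 100 nL stock; the first replicate is given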
T cruzi inh = T. cruzi replication inhibition; T. cruzi beta-gal in NIH3T3, luminescence, 90 h; inhibition, % (test concentration not listed); hit rate 1.4% among 300,000; AID 1885;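 active = mean inhibition across valid replicates above about 55%, limit read from the data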;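 note: signal also drops with host cell toxicity which is not excluded here; 0% = plate median of DMSO wells and 100% = zero luminescence signal; higher percent means less beta-gal luminescence so fewer parasites; stock transfer was 50 nL into about 50 µL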
Ecoli rRNA inh OD600 = recorded beside Ecoli rRNA inh, whose call it bears; OD600 change, %; measured here: OD600 growth;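 optical density of the mix in the first replicate; 0 = DMSO median and -100 = no signal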
Ecoli rRNA inh RFP = also measured in Ecoli rRNA inh; calls as there; RFP signal change, %; measured here: RFP humanized mutant strains;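 first replicate; 0 = DMSO median and -100 = no signal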
The depositor's hits bear a star; i = inactive; . = no result given; & = joins results of further samples.

SMILES,Ecoli rRNA inh,Ecoli rRNA inh OD600,Ecoli rRNA inh RFP,E coli growth,MLL AF4-AF9 inh,FGF22 binding,UCH37 inh,A1 inh,Beta apoptosis,T cruzi inh
CC(C)(C)c1ccc(S(=O)(=O)NNC(=O)c2cc3ccccc3[nH]2)cc1,-42.5,-62.8,-1.9,0.603,-0.8,i,0.0,-0.2,1.5,-1.2
Cc1ccc(C2C(C#N)=C(N)OC3=C2C(=O)CC(C)(C)C3)s1 (stereo not given),9.8,-0.2,-1.6,0.681,0.8,i,0.8,-0.1,-7.6,-7.3
CCN(CC)CCn1c2c(c(SCC(=O)Nc3cc(C)cc(C)c3)nc1=O)CCC2,7.6,9.0,-4.0,0.613,-8.1,i,5.4,1.4,.,13.3
Cc1cc(=O)[nH]c(S/C=C/c2ccccc2)n1,-11.2,6.4,5.9,0.71,1.5,i,2.4,-13.6,5.8,-7.1
Cc1cc(=O)nc2c3ccccc3n(CC(=O)NC3CCCCC3)n12,-0.1,0.0,-2.2,0.686,-1.0,i,-6.7,0.4,-1.1,4.4
O=C1NN(c2ccccc2)C(=O)/C1=C\c1cccn1-c1ccc(Cl)c([N+](=O)[O-])c1,.,.,.,0.748,.,.,6.9,0.0,0.2,-15.1
CCCNC(=O)C(CC)NS(=O)(=O)c1ccc(OC)cc1 (stereo not given),.,.,.,0.748,.,.,3.3,0.8,-0.6,-4.0
CC(=O)Nc1ccc(S(=O)(=O)N2CCSC2c2ccc(Cl)cc2)cc1 (stereo not given),.,.,.,0.7,.,.,-2.4,-0.2,8.9,-3.9
Cc1cc(Cl)ccc1OCC(=O)NNC(=O)C1CCN(c2ncnc3sc(C)c(C)c23)CC1,-27.6,-36.6,-10.5,0.661,-3.2,i,2.0,-0.7,-0.2,.
O=C(Cc1ccccc1)NC(=S)Nc1ccc(N2CCCCC2)cc1,-7.4,-7.7,-3.7,0.729,4.8,i,0.5,0.4,1.6,22.1
CCCN1C(=O)/C(=C/c2ccc(C)o2)SC1=Nc1ccc(OCC)cc1,.,.,.,0.751,.,.,-1.5,-0.1,4.2,17.1
COc1cc(/C=C2/C(=N)N3N=C(CC(=O)N4CCOCC4)SC3=NC2=O)ccc1OCc1ccccc1,0.1,1.8,-0.1,0.676,-0.5,i,6.3,-1.5,-8.1,-12.1
O=C(C1=C[C@@H](C2CC2)C[C@@H](OCc2ccc(CO)cc2)O1)N1CCN(Cc2ccccc2)CC1,.,.,.,.,-1.6,i,3.3,-0.8,13.0,20.9
CCOc1ccc(N(CC(=O)Nc2ccccc2Cl)S(C)(=O)=O)cc1,-2.0,-2.1,-0.6,0.717,-0.5,i,3.2,-0.7,.,0.7
CC(C)CCN1CC(C(=O)NCc2ccc(F)cc2)CC1=O (stereo not given),.,.,.,0.681,.,.,0.4,0.1,-4.6,-2.4
CC(Cc1cnccn1)NC(=O)c1cc(COc2ccc(F)cc2F)on1 (stereo not given),9.6,10.3,3.0,0.675,-14.7,i,4.3,0.0,-0.3,1.6
O=C(O)CCC(=O)N1CCC(n2nnc3cc(C(F)(F)F)ccc32)CC1,10.1,6.7,0.9,0.686,4.0,i,1.8,1.1,-3.0,4.4
Cc1cc(NC(=O)c2cccs2)ncc1NC(=O)C(C)(C)C,-1.3,4.1,-4.4,0.662,-1.7,i,-0.3,-5.5,0.9,-5.5
CCc1c(C)nc(SCC(=O)N2C(C)CCCC2C)[nH]c1=O (stereo not given),-4.8,-9.0,3.6,0.693,-2.8,i,5.4,0.4,0.9,19.1
O=C(CCCC(=O)OCC(=O)c1cccs1)Nc1ccc(F)cc1,2.9,5.5,0.0,0.65,-4.6,i,-1.8,0.0,-4.3,6.9
CCOC(=O)c1ccc(NC(=O)c2ccc(NC(=O)c3ccccc3)cc2)cc1,.,.,.,0.753,.,.,-0.3,0.6,2.2,-4.8
CCC(CC)NC(=O)COC(=O)c1ccc(OCc2ccc(C(C)=O)cc2OC)c(OC)c1,5.5,2.1,-3.5,0.679,-3.5,i,1.1,0.3,-0.5,-5.4
O=C(C[n+]1cccc(CNC(=O)c2ccc(OC(F)F)cc2)c1)Nc1ccccc1Cl,.,.,.,0.685,.,.,6.7,0.1,-3.8,-4.7
Cc1ccc(NC(=O)C(C)N2C(=O)c3ccccc3C2=O)cc1C (stereo not given),-3.0,3.9,0.5,0.705,0.0,i,2.0,0.6,-4.4,-6.1
Cc1cccc(C)c1NC(=O)NC1CC2CCC(C1)N2Cc1cccs1 (stereo not given),9.8,-1.9,-1.1,0.697,2.0,i,5.0,0.7,-1.6,0.4
CC(C)C12CN3CC(C(C)C)(CN(C1)C3(C)C)C2=O,.,.,.,0.678,-0.5,.,3.4,0.1,-2.9,-5.1
COc1cccc(NC(=O)CN(C)C(=O)CCSc2ccc(C)cc2)c1,-11.1,-16.5,-1.8,0.697,3.2,i,-1.8,0.3,1.7,.
COc1ccc(C2CC(c3ccc(F)cc3)=NN2c2ccccc2)cc1OC (stereo not given),56.2,2.2,34.7,0.69,-1.9,i,-52.4,-0.7,4.2,3.9
O=C(CP(=O)(c1ccccc1)c1ccccc1)N/N=C/c1cc(Br)cc(Br)c1O,4.4,24.8,13.8,.,-8.7,i,.,0.0,.,18.2
COc1ccccc1N1CCN(S(=O)(=O)c2cc3[nH]c(=O)c(=O)[nH]c3cc2C)CC1,-5.7,-11.0,3.0,0.688,2.7,i,-4.8,-0.2,0.1,-1.8
O=C(CCn1c(=S)[nH]c2cc3c(cc2c1=O)OCO3)NCc1cccc(Cl)c1,10.0,-4.1,-10.2,0.735,-2.5,i,4.7,0.4,5.6,7.9
Cc1ccc(CN(c2ccc(C(=O)NCc3ccccn3)cc2)S(C)(=O)=O)cc1,.,.,.,0.661,.,.,2.0,0.5,1.0,8.5
CCN(CC)CCn1c(=N)n(CC(O)c2ccco2)c2ccccc21 (stereo not given),5.1,10.8,0.9,0.675,2.0,i,-0.8,-0.9,3.4,-18.1
CCOc1ccccc1C1C(C(=O)OC)=C(N)OC2=C1C(=O)CCC2 (stereo not given),.,.,.,0.714,.,.,-0.9,2.2,.,3.0
Cc1ccc(S(=O)(=O)N[C@@H](Cc2ccccc2)C(=O)N2CCC[C@@H]2C(=O)O)cc1,4.3,1.3,-1.4,0.668,-0.9,i,4.6,0.2,-3.6,3.1
Cc1cc(C)cc(N=Cc2c(O)c3ccccc3oc2=O)c1,16.1,7.7,-2.4,0.708,0.5,i,-480.1,10.3*,-4.4,-22.3
Cc1cc(-c2cccc([N+](=O)[O-])c2)nc2ccc3ccccc3c12,.,.,.,0.722,.,.,2.2,-0.3,-5.6,-18.0
C/C(=N\Nc1ccc(S(=O)(=O)N2CCCCC2)cn1)c1ccc(O)cc1,-18.9,-26.8,-0.2,.,13.8,i,.,-1.0,27.2,.
CC(=O)c1cc(CC=C(C)C)c(O)cc1O,.,.,.,0.712,.,.,5.9,-0.2,0.6,19.5
CC(=O)NCCOC(=O)c1nn(Cc2ccccc2)c(=O)c2ccccc12,-3.9,5.9,4.7,0.692,-13.3,i,3.2,-0.4,-3.4,-59.1
CCCCCCCCN1[C@@H](CC(=O)OCC)c2cc(F)ccc2S1(=O)=O,-16.5,-28.6,-9.4,.,-3.9,i,0.3,0.1,7.4,4.3
Nc1ccc(C(=O)O)cc1[N+](=O)[O-],1.1,-12.5,-12.4,0.709,-0.4,i,6.3,0.3,-6.2,-13.8
C/C(=N\NC(=O)CCCCCNC(=O)c1ccccc1)c1ccccc1O,-16.9,-8.3,-2.4,.,-1.3,i,.,1.0,2.1,-5.5
CC1CCN(Cc2nnnn2CCCC(=O)N(C)C2CCOC2)CC1 (stereo not given),2.9,8.8,-1.0,0.722,0.2,i,1.8,-1.0,-3.2,-5.2
CCOc1ccc(CC(=O)N2CCN=C2SC)cc1,5.8,-3.8,-2.4,0.689,-1.1,i,1.5,-1.5,0.4,-2.6
Oc1cc2ccccc2cc1-c1nnc2n1-c1ccccc1SC2,.,.,.,0.717,.,.,1.2,0.2,9.7,15.6
O=c1[nH][nH]c(=O)c2cc([N+](=O)[O-])ccc12,3.0&-0.2,15.0&2.4,2.8&-1.2,0.693&0.634,-0.5,i,5.3&5.8,0.0,-3.1,.
COc1ccccc1N1CCN(Cc2nnnn2CCc2ccccc2)CC1,.,.,.,0.709,.,.,2.1,1.2,-4.0,9.4
CC(=O)Nc1cccc(C(=O)OC(C)C(=O)N2CCc3ccccc32)c1 (stereo not given),4.9,7.7,-2.0,0.719,0.5,i,1.2,1.2,-6.1,7.0
Cc1ccc(N2C(=O)NC3(CCCCC3)C2=O)cc1,.,.,.,0.726,.,.,1.8,0.2,-0.3,-6.9

The list goes on.
SMILES,Ecoli rRNA inh,Ecoli rRNA inh OD600,Ecoli rRNA inh RFP,E coli growth,MLL AF4-AF9 inh,FGF22 binding,UCH37 inh,A1 inh,Beta apoptosis,T cruzi inh
OCCN1CCN(Cc2cccc(Oc3ccc(Cl)cc3)c2)CC1,.,.,.,0.674,.,.,1.3,-0.6,4.0,60.7*
Cc1oc2c(CN(C)C)c(O)ccc2c(=O)c1-c1ccc2ccccc2n1,-2.5,2.3,1.4,0.642,-44.4,i,7.5,-0.1,0.5,-0.9
COC1(NS(=O)(=O)c2ccc(Br)cc2)C(C)=CC(=O)C=C1C,11.3,8.8,3.0,0.689,1.0,i,0.5,0.0,-1.1,7.6
CCCOc1cccc(C(=O)NCCCNC(=O)c2ccccn2)c1,-6.4,-24.5,5.2,0.658,-2.8,i,-1.4,0.3,-3.5,-2.7
CCN(CC(=O)NCCc1ccc(S(N)(=O)=O)cc1)Cc1nc2ccccc2c(=O)[nH]1,.,.,.,0.723,.,.,-0.3,0.1,1.0,5.0
CCn1c(=O)c2sccc2n(Cc2ccc(C)cc2)c1=O,8.4,3.9,5.2,0.687,-1.4,i,2.0,-0.4,-0.2,7.4
CCOC(=O)c1cc(NC(=O)Nc2cc(C)ccn2)c(C)nc1C,3.9,7.8,-1.7,0.719,-0.8,i,2.8,0.3,4.0,5.1
CCC(C)NS(=O)(=O)c1ccc(OCC(=O)Nc2ccc(F)cc2F)cc1 (stereo not given),.,.,.,0.802,.,.,4.2,1.0,-4.5,-12.3

The list is partial. The share of hits here may be higher or lower than overall.
